Screens (PubChem BioAssay)
TRPV1 potentiator = human TRPV1 potentiation; TRPV1-expressing cells, Fluo-8 calcium influx, capsaicin EC20 potentiation; host cell line not named in the record; control for the full effect not named in the record; Q8NER1; potentiation, % at 8.33 µM; hit rate 0.02% among 320,000; AID 540277; active means potentiation above 80%; inconclusive means 30% to 80%; inactive means below 30%; also: 0% is about no effect
Target sequence (Q8NER1 whole entry, looked up): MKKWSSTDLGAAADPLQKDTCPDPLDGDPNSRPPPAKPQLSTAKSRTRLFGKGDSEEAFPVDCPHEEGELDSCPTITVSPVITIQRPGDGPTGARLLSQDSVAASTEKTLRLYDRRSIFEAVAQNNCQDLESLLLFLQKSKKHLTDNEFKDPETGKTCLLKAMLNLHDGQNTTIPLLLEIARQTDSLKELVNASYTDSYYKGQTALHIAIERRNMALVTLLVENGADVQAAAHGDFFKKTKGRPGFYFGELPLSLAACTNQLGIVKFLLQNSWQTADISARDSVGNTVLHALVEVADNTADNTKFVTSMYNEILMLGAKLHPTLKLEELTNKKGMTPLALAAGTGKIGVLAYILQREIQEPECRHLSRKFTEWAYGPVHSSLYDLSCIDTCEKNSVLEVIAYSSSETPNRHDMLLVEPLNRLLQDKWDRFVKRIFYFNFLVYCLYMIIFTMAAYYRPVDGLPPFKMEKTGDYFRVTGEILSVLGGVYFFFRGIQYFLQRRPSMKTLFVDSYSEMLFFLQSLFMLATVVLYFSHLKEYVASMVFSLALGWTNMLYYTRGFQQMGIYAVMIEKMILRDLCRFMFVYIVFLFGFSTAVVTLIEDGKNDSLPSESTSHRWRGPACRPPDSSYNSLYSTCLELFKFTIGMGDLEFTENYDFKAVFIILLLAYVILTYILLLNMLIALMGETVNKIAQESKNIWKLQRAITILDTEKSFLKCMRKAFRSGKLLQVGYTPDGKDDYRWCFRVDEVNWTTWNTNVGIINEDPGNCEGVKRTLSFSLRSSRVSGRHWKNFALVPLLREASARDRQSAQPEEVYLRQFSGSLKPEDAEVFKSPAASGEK
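TRPV1-expressing cells were cultured overnight at 35.5C and loaded with Fluo-8 calcium dye for 40 to 90 min at room temperature. After a 10 s baseline, compound was added and calcium influx was read kinetically for 3 min (ex 480/em 520 nm).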
gsp ag = agonists of gsp mutant (McCune-Albright syndrome); hit rate 0.13% among 340,000; Potency, µM (top dose mostly 76.9 µM), for the others: at the highest dose activation (cAMP increase), usual class: activators; gsp mutant cells, cAMP HTRF, 30 min; control for the full effect not named in the record; active = well fitted activation curve with a large enough effect; inconclusive = small, poorly fitted or top-dose-only effect, or another doubt; inactive = no such curve, though single readings can be large or run the other way; cell line not stated here;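 also: phosphodiesterase inhibitor Ro 20-1724 added with compounds to block cAMP breakdown; potency is read from the fitted curve at half-maximal effect; nearly all actives have a fitted effect of over 60% in size; about a fifth of the inactives were tested at one dose only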
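Cells in DMEM/10% FBS with G418 were pretreated with compounds in DMSO plus […] (300 uM stock) for 30 min at 37C. cAMP was measured by HTRF (cAMP-d2 plus anti-cAMP antibody-K) after 30 min at room temperature.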
Sfp inh = Sfp phosphopantetheinyl transferase inhibition | Q9F4F7 | Biochemical Sfp PPTase activity, qHTS | Potency, µM, without a hit: max response, negative = inhibition, actives largely listed as inhibitors | hit rate 3.5% among 310,000 | AID 1490; active = well fitted inhibition curve with a large enough effect; inconclusive = small, poorly fitted or top-dose-only effect, or another doubt; inactive = no such curve, though single readings can be large or run the other way;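 also: the enzyme is Sfp with the accession as filed and its product quenches rhodamine fluorescence; potency is read from the fitted curve at half-maximal effect; 0% = enzyme reaction without inhibitor and -100% = no enzyme wells; top concentration of the series not given in the record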
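With Hepes-Na pH 7.6 buffer containing 10 mM MgCl2, Sfp (15 nM) modified BHQ-2-YbbR (12.5 uM) using rhodamine-CoA (5 uM). Two reads 30 minutes apart at 525/598 nm yielded each well's rate.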
ClpP mod = qHTS Assay for Activators of ClpP | ATP-dependent Clp protease proteolytic subunit (Bacillus subtilis (strain 168)), P80244 | purified B. subtilis ClpP, FRET peptide cleavage, 20 min | Potency, µM (doses to about 57.5 µM), inactives show top-dose activity change, negative = active | hit rate 1.9% among 340,000 | AID 651965, 2013; active = well fitted falling curve with a large enough effect; inconclusive = small, poorly fitted or top-dose-only effect; inactive = no such curve, though single readings can be large or run the other way; also: potency is read from the fitted curve at half-maximal effect; the source files actives as falling curves though it sought activators and does not explain the sign; nearly all actives have a fitted effect of over 65% in size; many hits overshoot -100%
Target sequence (P80244 whole entry, looked up): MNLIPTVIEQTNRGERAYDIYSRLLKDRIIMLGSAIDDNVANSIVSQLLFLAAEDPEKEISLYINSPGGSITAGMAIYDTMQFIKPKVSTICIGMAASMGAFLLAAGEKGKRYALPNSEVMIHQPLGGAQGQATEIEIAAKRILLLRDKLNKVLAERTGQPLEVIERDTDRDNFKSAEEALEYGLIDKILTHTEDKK
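FRET quenching reversal measured ClpP activation: 10 microg/mL B. subtilis ClpP at pH 8 with the FRET-FV decapeptide, read at 430 nm after 320 nm excitation. The 20-min minus 0-min signal was scaled between DMSO/no-enzyme wells and ADEP (5.8 microM final).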
CtBP-E1A blk = CtBP/E1A binding inhibition. AlphaScreen GST-E1A/His-CtBP binding, 1536-well; stronger effect = lower value; control for the full effect not named in the record. activity change, % (concentration not given with the values). hit rate 0.49% among 340,000. AID 651724; in the data active means activity change below about -65%; inconclusive means about -30% to -65%; inactive means above about -30%; also: % is scaled to controls: 0 for no effect and ±100 for the full control effect
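Protein mix (5X: 125 nM each GST-E1A, His-CtBP) was incubated with pinned compound 2 h at 37 deg C in dark, in 50 mM Tris pH 8.0 buffer with 300 mM NaCl. Glutathione donor and nickel acceptor beads followed; AlphaScreen signal read after 1 h.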
Menin MLL FP FL = displaces fluorescein MLL peptide from human menin; Fluorescence polarization, fluorescein-MLL peptide displacement from menin; FP activity change, % at 61.4 µM; 290,000 tested, under 10 active; inconclusive = falling polarisation curve, or a change in total fluorescence; inactive = total fluorescence flat and polarisation flat or rising; no compound was filed as active; the % refers to the polarisation; negative = inhibition;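 also: % of control where 0% means no effect; inhibitors lower the polarisation; unlabelled MLL peptide was the positive control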
gsp antag = antagonists of gsp mutant (McCune-Albright syndrome). gsp-mutant cells, cAMP HTRF, 30 min; control for the full effect not named in the record. Potency, µM (titrated, usually from 76.9 µM), inactives show at the top dose activity change, negative = inhibition, most hits filed as inhibitors. hit rate 0.4% among 340,000; active = falling curve of any shape with a large fitted effect; inconclusive = falling curve, mostly with a smaller effect; inactive = flat or rising curve; cell line not stated here;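 also: intracellular cAMP measured with PDE inhibitor Ro 20-1724 present during compound exposure; potency is read from the fitted curve at half-maximal effect; % is scaled to controls: 0 for no effect and ±100 for the full control effect; nearly all actives have a fitted effect of over 65% in size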
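HTRF cAMP measurement after 30 min RT detection following 30 min, 37C compound treatment alongside […] (added as 300 uM solution) in G418-selected cells seeded at 2000/well and grown 16–24 h.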
The depositor's hits bear a star; ? = inconclusive; . = not tested or not shown; & = joins results of further samples; [ ] = dose if it differs, or a comment.

SMILES,TRPV1 potentiator,gsp ag,Sfp inh,ClpP mod,CtBP-E1A blk,Menin MLL FP FL,gsp antag
Cc1ccc(CNC(=O)Nc2ccccc2)n1C,4,21%[15.4 µM],5%,.,4,-7.0,0%
Cc1ccc(NC(=O)C(c2ccccc2)N2CCN(C(=O)c3ccco3)CC2)cc1 (centres undefined),5,10%,.,1.1%,1,.,-3%
O=C(NC(C(=O)c1ccccc1)n1ccc(=O)[nH]c1=O)c1ccccc1 (centres undefined),17,3%,-1%,-1.1%,2,-0.4,-8%
COc1ccc(C2C(C(=O)c3cccs3)=C(O)C(=O)N2c2cccc(C)n2)cc1OC (centres undefined),7,-12%,10%,0.9%,.,0.5,-7%
Cc1cc(C)c(NN=c2c(=O)c3ccccc3c2=O)c(C)c1,-4,-1%,-11%,-1.7%,0,-0.7,8%
CCOC(=O)c1sc(NC(=O)CN2C(=O)NC3(CCC(C)CC3)C2=O)c(C(=O)OCC)c1C (centres undefined),7,19%,.,-1.0%,-7,.,20%
NC(=O)c1oc2ccc(Cl)cc2c1N,-5,5%,5%,?,-2,0.6,12%
COc1ccccc1C(=O)N1N=C(c2ccc(NS(C)(=O)=O)cc2)CC1c1cccs1 (centres undefined),0,10%,4%,-27%,.,1.1,?
Cc1ccc(Sc2ncccc2COC(=O)NC(C)C)cc1,-16,-7%[15.4 µM],0%,.,7,0.8,5%
Cc1n[nH]c(C)c1C(=O)CC1(O)C(=O)N(Cc2ccccc2)c2ccc(Br)cc21 (centres undefined),6,?,-3%,0.4%,-8,-0.5,-14%
CCCc1nc2oc3c(NCC4CCCO4)ncnc3c2c2c1COC(C)(C)C2 (centres undefined),3,27%,8%,?,-1,-0.6,1%
COC(=O)C12CCC(C)(c3nc4ccccc4nc31)C2(C)C (centres undefined),-1,-7%[15.4 µM],-19%,.,.,-0.5,7%
O=C(COc1ccccc1)Nc1ccc(S(=O)(=O)N2CCCC2)cc1,.,-3%,-3%,-0.3%,2,3.0,-7%
CC(C)(C)C(=O)Nc1ccc(Oc2ccc3c(c2)C(=O)N(c2ccc(O)cc2)C3=O)cc1,17,14%,-1%,-1.3%,4,5.5,-7%
CC1CCC(NC(=O)C2c3ccccc3C(=O)N2CCCN2CCOCC2)CC1 (centres undefined),1,12%,-1%,-0.9%,2,1.6,13%
CCOCC(=O)Nc1cc(Cl)ccc1C,-10,-9%[15.4 µM],12%,.,-21,-1.6,2%
O=C(CN1C(=O)C2CC=CCC2C1=O)Nc1ccc(-c2nnc3n2CCCCC3)cc1 (centres undefined),0,-15%,12%,-1.5%,-1,3.1,18%
N=c1n(CCN2CCCCC2)c2ccccc2n1CC(O)c1ccc(Cl)c(Cl)c1 (centres undefined),-8,-53%[inhibitor],?,-1.8%,-14,1.6,11%
O=S1(=O)CCOC[C@H](CC2CCCCC2)N1Cc1cccc(Cl)c1,-11,-17%,16%,-3.4%&1.6%,0,4.6,-4%
Cc1ccc(S(=O)(=O)CCC(=O)OCC(=O)N2CCN(S(=O)(=O)c3ccc(Cl)cc3)CC2)cc1,1,-15%[15.4 µM],7%,1.4%,0,.,-10%

Additional entries follow:
SMILES,TRPV1 potentiator,gsp ag,Sfp inh,ClpP mod,CtBP-E1A blk,Menin MLL FP FL,gsp antag
O=C(CSc1ncccn1)NCc1ccccc1,6,25%,8%,2.8%,3,1.0,18%
COc1cc(C(=O)Nc2cc(C)ccn2)cc(OC)c1OC,1,-61%,22%,1.0%,-4,11,6%
COc1ccc(/C=C2/SC(=O)N(CC(=O)NCCC(C)C)C2=O)cc1OC,1,-6%[15.4 µM],-7%,-3.8%,0,1.4,-6%
COCCCn1c(C)cc(C(=O)COC(=O)CCc2nc3ccccc3c(=O)[nH]2)c1C,-7,7%[15.4 µM],10%,.,-7,0.8,3%
O=C(/C=C/c1cn(CC(O)CN2CCOCC2)c2ccccc12)c1cccs1 (centres undefined),1,.,-23%,.,.,?,.
O=C(c1ccco1)N1CCN(S(=O)(=O)c2ccc(Cl)s2)CC1,-19,-36%[inhibitor],10%,-0.1%,22,3.1,0%
Cc1nn(-c2ccccc2)c2c1C(c1cccnc1)N1C=C(S(=O)(=O)N3CCCCC3)C=CC1=N2 (centres undefined),-4,-1%,-1%,-0.4%,-21,1.2,-17%
CC1(C)CC(=O)C2=C(C1)Oc1ncn(CCCn3ccnc3)c(=N)c1C2c1ccccc1 (centres undefined),0,-32%[inhibitor],17%,-3.4%,-3,2.0,-1%
C[C@H](CO)N1C[C@H](C)[C@@H](CN(C)S(=O)(=O)c2ccc(Oc3ccccc3)cc2)OCc2cn(nn2)CCCC1=O,.,8%,.,1.3%,2,.,.
COC(=O)[C@H](C)NC(=O)NC(C)CCc1ccccc1 (some centres undefined),1,6%,5%,0.0%,-8,-0.7,-1%
Cc1ccccc1OCC(O)Cn1c(=N)n(Cc2ccccc2)c2ccccc21 (centres undefined),14,-2%[15.4 µM],-24%,.,16,2.4,13%
COc1ccc(C(=O)CC2OC(=O)c3ccccc32)cc1OC (centres undefined),?,27%,8%,-9.7%,1,-0.4,-2%
Cc1cc(N)n2nc(-c3ccccc3)cc2n1,13,?,?,28µM*,2,13,6%
O=C(N/N=C/c1cc(Br)c(Br)o1)c1ccc2c(c1)OCCO2,.,-13%[15.4 µM],4.5µM*,.,-4,2.1,-12%
COc1ccc(Cn2c(C3CC3)nc3ccc(NC(=O)c4cccnc4)cc3c2=O)cc1,5,8%[15.4 µM],15%,.,-17,-0.2,2%
CCCOC1CCCN(C(=O)CCc2nnc(-c3ccc4c(c3)OCO4)o2)C1 (centres undefined),24,-30%[inhibitor],2%,20µM*,-2,.,-8%
CCOC(=O)c1ccc(NC(=O)c2nc[nH]c2C(=O)NCc2ccccc2)cc1,3,.,4%,71%,0,-1.7,-12%
COc1ccc(C2SCC(C(=O)NCc3ccc(F)cc3)N2C(C)=O)cc1 (centres undefined),-8,9%,6%,-0.4%,3,7.3,2%
O=C(CSc1ccccn1)Nc1ccc(Br)cn1,-9,1%,-2%,0.5%,3,-0.5,10%
CC(C)(CNC(=O)COc1ccccc1Cc1ccccc1)N1CCOCC1,-15,4%[15.4 µM],1%,-15%,3,-0.4,-1%

Other results:
SMILES,TRPV1 potentiator,gsp ag,Sfp inh,ClpP mod,CtBP-E1A blk,Menin MLL FP FL,gsp antag
Cc1ccc(-n2nc(C)c3c2OC(N)=C(C#N)C3c2ccc(F)cc2)cc1 (centres undefined),27,-13%,8%,0.7%,-10,1.2,-4%
COc1ccc(-n2c(C)c(C)c3c(N)ncnc32)cc1,2,12%,5%,.,-5,0.2,-9%
COC(=O)Nc1ccc(S(=O)(=O)NCCCCCC(=O)O)cc1,-4,1%[15.4 µM],5%,.,5,-0.7,15%
Cc1ccc(S(=O)(=O)N(CC(=O)Nc2ccccc2-c2ccccc2)c2ccc(C)cc2C)cc1,-15,0%,25%,-1.8%,-8,-3.1,0%
CC1OC2C(OC1C)N(S(C)(=O)=O)CCN2S(C)(=O)=O (centres undefined),14,-12%,17%,-0.6%,12,5.1,9%
CC1=C(C(=O)OCC2CCCO2)C(c2ccccc2)C2=C(CCCC2=O)N1 (centres undefined),-5,1%,26%,.,4,-4.0,1%
CC(=O)Nc1ccccc1OCC(=O)c1cc(C)n(Cc2cccs2)c1C,-13,-30%[inhibitor],?,1.4%,-7,9.7,?
O=C(Nc1nc(-c2ccco2)cs1)c1ccccc1,-16,-13%,?,-0.6%,0,8.9,-6%
CCC(=O)N(C)C[C@H]1Oc2ncc(C#Cc3ccncc3)cc2C(=O)N([C@@H](C)CO)C[C@@H]1C,.,?,.,-1.9%,5,.,.
Clc1ccc(-n2nnnc2-c2cnc3ccc(Cl)cc3c2-c2ccccc2)cc1,9,27%[15.4 µM],0%,.,5,0.4,1%
Cc1ccc(-n2c(-c3cccs3)nc3nc4ccccc4nc32)cc1,2,.,17%,.,.,6.0,.
CCc1nnc2n1N=C(c1ccccc1)CS2,-1,-59%[inhibitor],5%,-0.6%,-1,2.8,7%
CCOC(=O)C(Cc1ccccc1)C(=O)Nc1cccc(C)c1 (centres undefined),-15,-6%,-3%,-3.9%,8,0.2,-2%
O=C(CSc1ccc2ccccc2n1)Nc1ccc(N2CCOCC2)cc1,-2,-6%[15.4 µM],8%,.,0,0.4,-11%
Cc1cc(NC(=O)CCC(=O)N(Cc2ccccc2)C(C(=O)NC2CCCC2)c2ccc(C)o2)no1 (centres undefined),-8,1%[15.4 µM],12%,.,-2,.,-8%
C[C@H]1CN(S(=O)C(C)(C)C)[C@@H](CCO)/C1=C\CCO (some centres undefined),.,.,.,1.5%,5,.,7%
CC1=NN(c2ccc(C(=O)O)c(N)c2)C(=O)C1,7,1%[15.4 µM],?,.,-6,-11,-7%
CC(c1ccccc1F)n1cc(C(=O)NCc2ccncc2)nn1 (centres undefined),-16,-12%,5%,3.0%,8,2.2,13%
COc1cc(CN2CCCC(C)C2)ccc1OCc1ccccc1 (centres undefined),-6,1%[15.4 µM],-2%,-1.9%,-6,0.2,5%
Cc1ccc([N+](=O)[O-])cc1NC(=S)NC(=O)c1cccs1,16,0%,-9%,-1.1%,3,1.2,11%
O=C(O)C1=C[C@H](c2coc3ccccc3c2=O)C[C@H](OCc2ccc(CO)cc2)O1,-4,.,9%,7.0%,4,-1.5,-6%
Cc1cc(C)c(OCC(=O)Nc2nc3ccccc3[nH]2)c(C)c1,2,-19%,20%,2.2%,-1,-7.5,0%
Cn1c(SCC(=O)Nc2ccc3nc(SCC(=O)NC4CC4)sc3c2)nnc1-c1ccccc1,5,7%,0%,-5.5%,-6,1.2,-8%
